KCNQ2 inh: KCNQ2 potassium channel inhibitors, primary screen, cell-based, CHO-K1, FluxOR thallium flux, B-score (AID 2156); B-score at 10 µM; 20 min; active compounds read low; only compounds with negative scores are shown here; some inactives read as strong as hits; hit rate 1.1% among 310,000; Potassium voltage-gated channel subfamily KQT member 2 (Rattus norvegicus), O88943;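 active = fluorescence ratio B-score at most minus 3 library SDs, with starting brightness B-score within 2 library SDs, cut at about -5.5 in these data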
Target sequence (O88943 whole entry, looked up): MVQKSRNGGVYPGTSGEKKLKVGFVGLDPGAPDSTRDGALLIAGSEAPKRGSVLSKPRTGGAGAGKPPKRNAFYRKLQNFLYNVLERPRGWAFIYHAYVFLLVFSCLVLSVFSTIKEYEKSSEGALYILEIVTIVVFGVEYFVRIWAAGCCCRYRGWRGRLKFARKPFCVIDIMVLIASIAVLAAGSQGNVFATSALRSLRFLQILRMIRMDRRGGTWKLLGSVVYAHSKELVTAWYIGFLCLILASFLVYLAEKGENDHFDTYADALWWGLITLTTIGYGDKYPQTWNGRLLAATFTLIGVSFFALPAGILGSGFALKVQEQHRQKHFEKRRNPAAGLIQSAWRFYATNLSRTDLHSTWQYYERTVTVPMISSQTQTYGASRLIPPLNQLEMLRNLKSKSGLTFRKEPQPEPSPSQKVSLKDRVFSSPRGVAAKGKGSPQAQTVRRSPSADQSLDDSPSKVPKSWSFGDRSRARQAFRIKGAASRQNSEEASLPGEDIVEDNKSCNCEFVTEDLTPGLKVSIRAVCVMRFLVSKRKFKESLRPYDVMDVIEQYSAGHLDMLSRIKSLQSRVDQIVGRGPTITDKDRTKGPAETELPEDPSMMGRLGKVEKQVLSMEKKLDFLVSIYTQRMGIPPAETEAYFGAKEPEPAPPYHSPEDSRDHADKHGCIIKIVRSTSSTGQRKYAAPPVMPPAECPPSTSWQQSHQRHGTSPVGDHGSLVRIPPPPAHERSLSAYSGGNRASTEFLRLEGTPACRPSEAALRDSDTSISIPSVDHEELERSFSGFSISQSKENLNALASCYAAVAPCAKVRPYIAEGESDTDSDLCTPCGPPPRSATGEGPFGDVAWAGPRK
KCNQ2 inh baseline: recorded beside KCNQ2 inh, whose call it bears; B-score; measured here: initial fluorescence intensity artifact check;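 brightness before thallium and not channel activity; 0 = typical well and far values either way flag optical interference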
Active calls of the source: *; i = inactive. Some of the compounds tested; rates above refer to the full screens.

KCNQ2 inh | KCNQ2 inh baseline | smiles
i | 0.45 | Cc1ccc(-c2csc3ncnc(N4CCN(C)CC4)c23)cc1C
i | -0.41 | CC(C)c1cc(CNC(=O)C2CCC(=O)N(CCc3ccc(Cl)cc3)C2)on1 (configuration not stated)
i | -0.74 | O=C(CNCc1ccccc1)Nc1ccccc1-c1ccccc1
i | 0.05 | CC1=C(C(=O)Nc2cc(C(=O)N3CCN(c4cccc(C)c4)C(C)C3)ccc2C)SCCO1 (configuration not stated)
i | 0.44 | CC(=O)CCc1oc2ccccc2c1-c1ccccc1
i | -0.53 | Cc1cccc(C(=O)Nc2c(C#N)c(C)c(C)n2Cc2ccccc2)c1
i | 5 | Oc1ccccc1N1CCN(c2nc(-c3cccs3)nc3ccccc23)CC1
i | 0.66 | OCC1(CCOc2ccccc2)CCN(C2Cc3ccccc3C2)CC1
i | 0.07 | COC1=CC2(O)CCCC2=CC1=O (configuration not stated)
i | -2.2 | CCOC(=O)C1=C(c2ccccc2)Nc2c(c(=O)n(C)c(=O)n2C)C1c1ccc(O)c(OC)c1 (configuration not stated)
i | 1.3 | CN(C)CCSc1nc(N)c2c3c(sc2n1)CN(C)CC3
i | 0.22 | CC(=O)C1=C(c2ccccc2)NC(=O)NC1c1ccccc1OCC(=O)NCc1ccccc1 (configuration not stated)
-6.9* | -0.42* | CCOC(=O)C(C)Sc1nc(C2CC2)cc(C(F)(F)F)c1C#N (configuration not stated)
i | -0.04 | Cc1ccc(NC2CC(=O)N(c3cccc([N+](=O)[O-])c3)C2=O)cc1 (configuration not stated)
i | -0.79 | O=C(NC1=NCCS1)c1sc2cc(F)ccc2c1Cl
i | 0.95 | Cc1ccc(C)c(OCc2cc(C(=O)N3CCN(c4ccccc4)CC3)no2)c1
i | -0.26 | CCCCN(CC)C(=O)c1ccccc1Oc1ccccc1
i | -2.1 | COc1ccccc1N1CCN(CCCNC(=O)Nc2ccccc2)CC1
i | 0.66 | Cc1cc(C)cc(-c2nc(-c3ccncc3)no2)c1
i | 0.25 | CN1CCN(S(=O)(=O)c2ccc(NC(=O)c3ccco3)cc2)CC1
i | -1.7 | COc1ccc(-c2nc3c4ccccc4ccn3c2CN2CCOCC2)cc1OC
i | -0.18 | CC(C)C1COC(c2cccc3ccccc23)=N1 (configuration not stated)
i | 0.97 | COc1ccccc1NC(=O)CSc1nc(O)cc(=O)[nH]1
i | 2.1 | CCn1c2ccccc2c2cc(/C=N/NC(=O)c3cc(O)cc(O)c3)ccc21

Brought forward from above: 5 entries, followed by the next part.
KCNQ2 inh | KCNQ2 inh baseline | smiles
i | 0.25 | CN1CCN(S(=O)(=O)c2ccc(NC(=O)c3ccco3)cc2)CC1
i | -1.7 | COc1ccc(-c2nc3c4ccccc4ccn3c2CN2CCOCC2)cc1OC
i | -0.18 | CC(C)C1COC(c2cccc3ccccc23)=N1 (configuration not stated)
i | 0.97 | COc1ccccc1NC(=O)CSc1nc(O)cc(=O)[nH]1
i | 2.1 | CCn1c2ccccc2c2cc(/C=N/NC(=O)c3cc(O)cc(O)c3)ccc21
i | 0.28 | Cc1nc(C(=O)NNC(=O)c2ccccc2)c(C(F)(F)F)o1
i | -0.33 | COc1ccc(-c2c3c(=O)n(C)c(=O)n(C)c3cn2-c2cc(OC)ccc2OC)cc1
i | 4.2 | COc1ccc(C(=O)c2c[nH]c(C(=O)NCc3cccnc3)c2)cc1
i | -1.7 | Clc1ccc(CNc2nc(N3CCOCC3)nc(N3CCOCC3)n2)cc1
i | 0.09 | Cc1cc(C(=O)CSc2ncccn2)c(C)n1Cc1ccco1
i | 2 | O=C(Cn1nnc2c(cnn2-c2ccccc2)c1=O)NCc1cccs1
i | 2.6 | C=CCn1c(CNC(=O)c2cccs2)nnc1SCC(=O)c1ccc(Br)cc1
i | 0.53 | CCCn1c(CCNC(=O)c2cccs2)nc2ccccc21
i | -1.8 | CCCc1[nH]nc2c1C(c1ccc(O)c(OC)c1)C(C#N)=C(N)O2 (configuration not stated)
i | 1.4 | Cc1cccc(C2=N/C(=C\c3cccnc3)C(=O)O2)c1
i | -0.14 | CCOc1ccc(S(=O)(=O)NCCC(=O)N2CC(C)CC(C)C2)cc1 (configuration not stated)
i | 0.79 | O=C1OC(Nc2ccc(F)c([N+](=O)[O-])c2)c2ccccc21 (configuration not stated)
i | -1.9 | COCCNC(=O)C(c1ccccc1C)N(CCOC)C(=O)Cn1nnc2ccccc21 (configuration not stated)
i | 0.16 | COc1cccc(NC(=O)CSc2nc3ccccc3nc2N2CCCC2)c1
i | 0.52 | O=C(C[n+]1ccccc1)Nc1c(Cl)cc(Cl)cc1Cl
i | 0.42 | Cc1ccc(-n2nnnc2SCC(=O)Nc2sccc2C#N)cc1
i | 1.3 | CCCCOc1ccc(/C(O)=C2/C(=O)C(=O)N(Cc3cccnc3)C2c2ccncc2)c(C)c1 (configuration not stated)
i | -0.74 | Cc1ccc(-c2nn(-c3cccc(F)c3)cc2CN(Cc2nccn2C)C(C)C)o1
i | 0.72 | CCC1(c2ccc(Cl)cc2)NC(=O)N(Cc2ccc(C(=O)OC)cc2)C1=O (configuration not stated)
i | 0.92 | NC(=O)c1nnn(-c2cccc(C(F)(F)F)c2)c1-c1ccccc1
i | -0.94 | COc1cccc(C=O)c1OCCCOc1cccc2cccnc12
i | 0.02 | CC(C)N1CN=C(Nc2nc3ccccc3o2)NC1
i | 0.33 | CC(C)P(=O)(Cc1cccc(C#N)c1)C(C)C
i | 1.6 | COc1cc(-c2nnc3sc(-c4ccco4)nn23)cc(OC)c1OC
i | 1.1 | O=C(Nn1c(-c2ccc(F)cc2)nc2ccccc2c1=O)C1CCCCC1
i | 0.98 | Cc1cccc(NNC(N)=S)c1
i | 0.91 | CC(Cc1ccccc1)NC(=S)CN1CCCC1=S (configuration not stated)
i | 2 | c1ccc2c(c1)nc(NC1CCCCC1)c1nncn12
i | -0.34 | Cc1ccc(-n2nc(C(=O)NCc3ccc(C)o3)c3c4ccccc4n(C)c3c2=O)cc1
-7.6* | 0.02* | O=C(N1CCN(c2ccccc2F)CC1)C12CC3CC(CC(C3)C1)C2
i | 0.89 | CCC(C)NC(=O)CNC(=O)Cn1c(C)cc2ccccc2c1=O (configuration not stated)
i | 2.3 | CC(=O)c1c(C)nc(-c2ccc(OCC(=O)Nc3ccccc3)cc2)n1O
i | 0.65 | COC(=O)c1cn(C(=O)c2ccccc2Cl)c2ccccc12
i | -0.67 | O=C(O)CNc1nc(-c2ccccc2)c2cc([N+](=O)[O-])ccc2n1
i | 1.7 | CN1CCN(C(=O)c2ccc3c(c2)NC(=O)C(N2CCOCC2)S3)CC1 (configuration not stated)
i | 1.4 | O=C1C2C3c4ccccc4C(c4ccccc43)C2C(=O)N1c1cccc2cccnc12 (configuration not stated)
i | -0.24 | COC(=O)c1nn(-c2ccc(C)cc2)c2nnc(Cc3ccccc3)c(=O)n12
i | 0.99 | O=S(=O)(c1cc(F)ccc1F)N1CCC2(CC1)OCCN2S(=O)(=O)c1ccccc1
i | -0.12 | CC1CCN(c2oc(-c3ccc(F)cc3)nc2C#N)CC1
i | -0.08 | Cc1cccc(N2CCN(C(=O)COc3cc4oc(=O)cc(C)c4cc3Cl)CC2)c1C

Taken from above for reference:
KCNQ2 inh | KCNQ2 inh baseline | smiles
i | -0.12 | CC1CCN(c2oc(-c3ccc(F)cc3)nc2C#N)CC1
i | -0.08 | Cc1cccc(N2CCN(C(=O)COc3cc4oc(=O)cc(C)c4cc3Cl)CC2)c1C

The list goes on.
KCNQ2 inh | KCNQ2 inh baseline | smiles
i | 0.25 | OCC[C@H]1C[C@H](O)[C@@H](O)[C@]2(CCCCO2)O1
i | -0.9 | Cc1ccc(OCC(=O)Nc2nc(-c3ccccn3)cs2)c(C)c1
i | 1.5 | Cc1noc(C)c1CSc1nnc(-c2ccccc2F)n1CCc1ccccc1
i | -0.08 | Cc1ccc(C)c(N(C)C(=O)c2coc(=O)c3ccccc23)c1
i | -0.97 | Cc1cccc(C)c1NC(=S)N(C)CCc1ccccn1
i | 0.03 | Cc1cccc(-c2noc(-c3ccc(F)cc3)n2)c1
i | 0.11 | O=C(C1CCCN(S(=O)(=O)c2ccc(Br)s2)C1)N1CCCCCC1 (configuration not stated)
i | -0.2 | CCc1nc(SCC(=O)Nc2ccc([N+](=O)[O-])cc2)n[nH]1
i | 1.9 | O=C(c1ccc(-c2ccccc2Cl)o1)N1CCN(S(=O)(=O)c2cccs2)CC1
i | -0.8 | CCN=C1SC(CC(=O)Nc2ccc(C(F)(F)F)cc2)C(=O)N1CC (configuration not stated)
i | 3.2 | Cc1ccc(C)c(N(CC(=O)NN=C2CCCCCCC2)S(C)(=O)=O)c1
i | 2.3 | COc1ccccc1NC(=S)NNC(=O)c1ccc(O)cc1
i | 0.01 | CC(CC(=O)NCCc1ccc(F)cc1)c1ccccc1 (configuration not stated)
i | 2.1 | CCC(Sc1nc2c(c(=O)[nH]1)CCC2)C(=O)Nc1cccc(OC)c1 (configuration not stated)
i | -1.1 | Cc1c(-n2cc(C(=O)O)c(=O)c3cc(F)c(N4CCCC(O)C4)c(F)c32)c(=O)n(-c2ccccc2)n1C (configuration not stated)
i | -0.36 | CC(=O)c1cccc(NC(=O)Cn2cnc(S(=O)(=O)N3CCCCC3)c2)c1
i | 0.92 | Cc1ccc(C=C2C(=O)c3ccccc3C2=O)o1
i | 0.73 | CCN(CC)S(=O)(=O)c1cccc(-c2n[nH]c(=S)n2C(C)COC)c1 (configuration not stated)
i | -1.4 | CCc1ccccc1NC(=O)Nc1c(C)n(C)n(-c2ccccc2)c1=O
i | 1.1 | O=C(O)CCC(=O)N1N=C(c2ccc(Br)cc2)CC1c1cccs1 (configuration not stated)
i | -0.07 | CC1CCN(C(=O)CCN2C(=O)C3C4C=CC(C4)C3C2=O)CC1 (configuration not stated)
i | 0.85 | COc1ccc2nccc(C(N)=O)c2c1
i | -0.02 | CC1CCc2cc(F)ccc2N1C(=O)CCC(=O)O (configuration not stated)
i | 0.62 | CCOC(=O)c1sc(NC(=S)NC(=O)C2CC2)cc1C

Four compounds already listed, sorted by number of heavy atoms, falling:
KCNQ2 inh | KCNQ2 inh baseline | smiles
i | -0.07 | CC1CCN(C(=O)CCN2C(=O)C3C4C=CC(C4)C3C2=O)CC1 (configuration not stated)
i | 0.62 | CCOC(=O)c1sc(NC(=S)NC(=O)C2CC2)cc1C
i | -0.02 | CC1CCc2cc(F)ccc2N1C(=O)CCC(=O)O (configuration not stated)
i | 0.85 | COc1ccc2nccc(C(N)=O)c2c1

Further structures.
KCNQ2 inh | KCNQ2 inh baseline | smiles
i | -1.7 | N#Cc1ccc(-c2ccc(F)cc2)nc1Oc1ccccc1
i | -1.6 | COc1ccc(OC)c(-n2c(-c3ccc(S(C)(=O)=O)cc3)cc(C=O)c2C)c1
i | 0.01 | COCCNC(=S)NCc1cccs1
i | 0.04 | COc1ccc(OCCCC(=O)NCC(C)C)cc1
i | 1.2 | Cc1ccc(NC(=O)NNC(=O)c2snnc2C)cc1
i | -1.5 | O=C(O)CC1(CC(=O)Nc2ccc(C(F)(F)F)cc2)CCCC1
i | -0.61 | Cc1ccc(NC(=O)COC(=O)c2cccc3c2C(=O)c2ccccc2C3=O)c(C)c1
i | 0.53 | NC(=O)COC(=O)c1cc(S(=O)(=O)N2CCN(c3ccccc3)CC2)ccc1Cl
i | 0.39 | CCC(=O)NC(c1ccco1)c1cc(Cl)c2cccnc2c1O (configuration not stated)
i | -0.19 | C=CCc1ccc(OCC(O)CN2CCCCC2)c(OC)c1 (configuration not stated)
i | 0.03 | Cc1ccc(C)c(OCCC(=O)OCC(=O)NCCc2ccc(S(N)(=O)=O)cc2)c1
i | 0.03 | O=C(Nc1ccc(Sc2ccc(Br)cc2)cc1)c1ccco1
i | 2.1 | O=C(CCCSc1nnc(-c2cccs2)n1CC1CCCO1)c1ccccc1 (configuration not stated)
i | -2.4 | O=[N+]([O-])c1cccc(C(=Nc2ccc(Cl)cc2)NO)c1
i | -0.98 | O=C1CN(C(=O)CSc2nncs2)c2ccccc2N1
i | -0.1 | CN(c1ccc(OCC(=O)OCC(=O)Nc2ccccc2)cc1)S(=O)(=O)c1cccs1
i | -0.2 | CC(C)C(=O)NC(Nc1ccccc1F)C(Cl)(Cl)Cl (configuration not stated)
i | 0.21 | O=C(Oc1ccccc1)c1cc2ccccc2o1
i | -2.4 | Cc1cc(C(C)(C)C)cc(C)c1C[n+]1ccc2ccccc2c1
i | 0.01 | COC(=O)C1=CN(Cc2ccc(OC)c(OC)c2)C=C(C(=O)OC)C1c1cccc(OC)c1OC
i | 0.45 | CCn1c(CSc2ncccn2)nnc1SCC(=O)N1c2ccccc2CC1C (configuration not stated)
i | -1.3 | COc1ccc(-c2cc(C(=O)Nc3c(Cl)cc(Cl)cc3Cl)c3ccccc3n2)cc1OC
i | 0.56 | CCNC(=S)N/N=C(\C)c1cccc(OC)c1
i | 2 | O=C(CCN1CCCO1)NC1CCCc2c1cnn2-c1ccccc1F (configuration not stated)
i | 1.1 | Cc1cccc(NC(=O)NCCc2ccc(Cl)cc2)c1
i | -0.46 | COc1cccc(N/C(SCc2cccc([N+](=O)[O-])c2)=C(/C#N)C(=O)NCc2cccs2)c1
i | -0.01 | COc1ccc(NC(=O)c2cc(-c3ccc(C)cc3)on2)cc1
i | 2.3 | CCN(C(=O)Nc1ccccc1OC)c1c(N)n(Cc2ccccc2)c(=O)[nH]c1=O
-7* | -1.3* | c1ccc(N2CCN(c3ccccc3)C2c2cccs2)cc1
i | -1.2 | COc1ccc(/C(C)=N/Nc2ncc(Cl)cc2Cl)c(O)c1
i | 0.92 | Cc1ccccc1N1C(=O)C2C3CC(=O)C(c4ccccc43)C2C1=O (configuration not stated)
i | -1.2 | COc1cc(Br)c(C(=O)c2nccc3cc(OC)c(OC)cc23)cc1OC
i | -0.25 | Cc1cc(OCC(=O)Nc2ccccc2C(N)=O)c2c(C)cc(=O)oc2c1
